Source: PubChem
NPYLR7 ag – activates Aedes aegypti NPYLR7 receptor | HEK293T NPYLR7/Galpha15, GCaMP6s calcium fluorescence | activation, % at 10 µM | actives 0.15% (n = 270,000) | AID 1259423; in the data active = activation above about 40%;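 also: 0% = vehicle and 100% = reference agonist at the receptor; some compounds past the cut are filed as inactive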
NPYLR7 ag max-min – second read-out of NPYLR7 ag, no call of its own (marks repeat the call); activation, %; measured here: Max-Min RFU normalised activation; some inactives read as strong as hits;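 span of the calcium signal over five minutes; 0% = vehicle and 100% = native peptide agonist; compound fluorescence can raise it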
An asterisk follows results filed as active; & = joins results of further samples. Some of the compounds tested; count on the stated rates, not on these rows.

Results follow in this order: NPYLR7 ag, NPYLR7 ag max-min
Cc1cc(C)c(-n2cccn2)c(-c2nccn2CCN2CCOC2=O)c1
    24, 12
CC(Sc1nc2ccc(F)cc2c(=O)[nH]1)C(=O)NC(=O)NCc1ccccc1 (stereo not drawn)
    1, -2
Cc1nn(-c2ccccc2F)c(C)c1CC(=O)Nc1nnc(C2CC2)s1
    -6, -8
COCCc1noc(-c2sc(-c3ccc(Cl)s3)nc2C)n1
    -7, -6
CCOc1cccc(CNCc2ccccc2OC)c1
    1, -2
Cc1cc(C)cc(OCCN(C)C(=O)Cc2c(C)[nH]c(=O)[nH]c2=O)c1
    4, 2
C=CCN(Cc1cnc(S(=O)(=O)Cc2ccccc2)n1CCOC)C(=O)Cc1ccccc1
    -3, -5
N#Cc1ccc(S(=O)(=O)Nc2ccc(Br)cc2F)cc1
    4, 5
CC(C)N(Cc1ccccc1)Cn1nc2n(C)c(=O)c3ccccc3n2c1=S
    13, 18
Cn1c(NCCO)nc2ccccc21
    8, 7
Cc1nc(-n2nc(-c3ccco3)cc2NC(=O)C2CC2)[nH]c(=O)c1C
    2, 0
CC(C)C(C)(C#N)NC(=O)Cn1cc(-c2ccccc2)cn1 (stereo not drawn)
    8, 3
COCC1N(Cc2ccc(Oc3ccccc3)cc2)C2CCC1(O)CC2 (stereo not drawn)
    1, 11
CCOC(=O)c1cc(-c2ccc(N3CCN(C(=O)c4cc(C)oc4C(F)(F)F)CC3)cc2)n(-c2ccccn2)n1
    22, 12
O=C(Nc1ccc(F)cc1)C(=O)c1c(O)[nH]c2ccc([N+](=O)[O-])cc12
    -3, -6
O=P(c1ccccc1)(c1ccccc1)c1ccccc1
    15, 16
O=[N+]([O-])c1ccc(CN2CCCn3cccc3C2c2cccc(Oc3ccccc3)c2)cc1 (stereo not drawn)
    11, 11
Cc1ccc(-c2cccc(C(=O)N3CCCC(Nc4ccccc4)C3)c2)o1 (stereo not drawn)
    21&-5, 15&-6
COc1cccc(-c2nccn2CC(C)Oc2cccnc2)c1OC (stereo not drawn)
    5, 0
Cn1ccnc1-c1ccc(NCC[C@@H]2C[C@@H]3C=C[C@H]2C3)nn1
    -1, 0
CN1c2cnc(N)nc2-c2sccc2S1(=O)=O
    -7, -13
C=CCn1c(SCC(=O)O)nc2sc3c(c2c1=O)CCCC3
    15&26, 8&13
Cc1ccc(-c2cc(C(=O)N3CCN(c4cccc(C)c4C)CC3)c3ccccc3n2)cc1
    3, -5
Cc1cc(C)n2c(NC3CCCCC3)c(-c3ccc(F)cc3)nc2n1
    2, 14
COC(=O)/C(=C1/OC(=O)C(c2ccccc2)=C1O)c1ccccc1
    4, 2
O=S(=O)(NCc1ccccc1)NCc1ccccn1
    1, -1
COc1ccccc1NC(C(=O)N(C)C)c1ccccc1 (stereo not drawn)
    -2, -4
COC1C=CCC(C#N)(c2ccccc2)C1(C#N)C#N (stereo not drawn)
    7, 6
CCC(C)NC(=O)NC1CC(=O)N(c2ccc(OC)c(OC)c2)C1 (stereo not drawn)
    -1, -3
c1ccc2c(N3CCOCC3)nc(-c3ccncc3)nc2c1
    0, -5

Complete entries, quoted from the list. Order of screens: NPYLR7 ag, NPYLR7 ag max-min
`CC(C)N(Cc1ccccc1)Cn1nc2n(C)c(=O)c3ccccc3n2c1=S` in the list: 13, 18
`CN1c2cnc(N)nc2-c2sccc2S1(=O)=O` in the list: -7, -13

Next records:
Results follow in this order: NPYLR7 ag, NPYLR7 ag max-min
Cc1cnc(SCCN2CCOCC2)nc1C1CCCN(C(=O)c2noc3c2CCCC3)C1 (stereo not drawn)
    19, 0
Cn1cnc2c(Nc3ccc4[nH]ccc4c3)nccc21
    -5, -11
O=C(Cc1ccc(F)cc1)N1CCC(Cc2ccc(-c3ccccc3)cc2)CC1
    -1, -9
COc1ccc(CC(=O)Nc2cc(C)nn2-c2nc3c(c(=O)[nH]2)CCC3)cc1
    7, -1
CC(C)c1cccc(N(C)S(=O)(=O)CC2CCOCC2)c1
    15, 12
CCc1cccc2c(C(CC(=O)NCc3ccco3)c3cccc4c3OCO4)c[nH]c12 (stereo not drawn)
    21, 16
Cc1ccc(CNC(=O)c2nnc(/C(Cl)=C\c3ccc(C)s3)s2)cc1
    -1, -1
Cc1ccccc1C(CC(=O)N1CCNC(=O)C1(C)C)c1ccccc1 (stereo not drawn)
    7, -1
CCCCn1c(N)c(NCCC)c(=O)[nH]c1=O
    -8, -11
CC1(C)Cc2c(cnn2-c2ccccc2)C(NC(=O)c2cccc(N3CCCC3=O)c2)C1 (stereo not drawn)
    -16, -20
CC(C)c1cc(C(=O)Nc2sccc2C#N)nn1C(C)(C)C
    0, -2
Cc1csc(CN2CCOC(CCNC(=O)C3CNC3)C2)n1 (stereo not drawn)
    3, 2
FC(F)(F)c1cccc(N2CCN(C3CCCN(CCc4ccccn4)C3)CC2)c1 (stereo not drawn)
    8, 4
CN(Cc1ccc(Cl)s1)C(=O)Nc1ccc(N(C)C)nc1
    -16, -19
Cc1ccc(C)c(Cn2c(=O)c3c(nc4n(CCCN5CCOCC5)c(C)cn34)n(C)c2=O)c1
    -1, 0
COc1cccc(C(=O)Nc2ccc(Nc3ccc(-n4ccc(C)n4)nn3)cc2)c1
    -3, -7
Cc1ccc(C2=NN(C(=O)CN3CCCC3)C(c3ccccc3F)C2)cc1 (stereo not drawn)
    -4, -3
Cc1csc2c(N3CCNC(C(=O)NCc4ccccn4)C3)ncnc12 (stereo not drawn)
    1, -3
O=C(Nc1ccccc1[N+](=O)[O-])C1CCN(c2ccc(-c3ccc(F)cc3)nn2)CC1
    -10, -13
CCN(CC)S(=O)(=O)c1ccc(OC(C)C)c(NC(=O)CC23CC4CC(CC(O)(C4)C2)C3)c1
    6, 5
Cc1ccc(N2CCCC(N3CCN(CC(F)F)CC3)C2=O)cc1 (stereo not drawn)
    7, 5
COc1ccc(-c2nc3cc(C)ccn3c2NC(=O)C(C)(C)CCl)cc1
    -13, -8
CCOC(=O)C1(Cc2ccc(OC)cc2)CCN(S(=O)(=O)c2cccc(C)c2)CC1
    0, -4
CCn1c(SCc2cc(Cl)c3c(c2)OCO3)nnc1-c1ccco1
    -4, -4
CCOC(=O)Cc1csc(NC(=O)c2ccc(C)c([N+](=O)[O-])c2)n1
    -5, -12
CC(=O)c1cccc(NC(=O)N2CCC(CCc3ccc(C(F)(F)F)cc3)CC2)c1
    2, 13
Nc1c(C(=O)Nc2ccccc2O)sc2ncccc12
    -1, -1
Cc1cccc(OCc2nn3c(N)c(C=C4C=Nc5ccccc54)c(=O)nc3s2)c1
    -2, -3
CN1CCN(S(=O)(=O)c2ccc(NC(=S)NC(=O)/C=C/c3ccc(F)cc3)cc2)CC1
    -5, 2
CCOC(=O)C1(Cc2ccc(Cl)cc2)CCN(C(=O)CC2=CCCCC2)CC1
    5, 2

26 of the compounds above, with bars between the fields.
canonical_smiles | NPYLR7 ag | NPYLR7 ag max-min
CC(C)c1cccc(N(C)S(=O)(=O)CC2CCOCC2)c1 | 15 | 12
CCc1cccc2c(C(CC(=O)NCc3ccco3)c3cccc4c3OCO4)c[nH]c12 (stereo not drawn) | 21 | 16
Cc1ccc(CNC(=O)c2nnc(/C(Cl)=C\c3ccc(C)s3)s2)cc1 | -1 | -1
Cc1ccccc1C(CC(=O)N1CCNC(=O)C1(C)C)c1ccccc1 (stereo not drawn) | 7 | -1
CCCCn1c(N)c(NCCC)c(=O)[nH]c1=O | -8 | -11
CC1(C)Cc2c(cnn2-c2ccccc2)C(NC(=O)c2cccc(N3CCCC3=O)c2)C1 (stereo not drawn) | -16 | -20
CC(C)c1cc(C(=O)Nc2sccc2C#N)nn1C(C)(C)C | 0 | -2
Cc1csc(CN2CCOC(CCNC(=O)C3CNC3)C2)n1 (stereo not drawn) | 3 | 2
FC(F)(F)c1cccc(N2CCN(C3CCCN(CCc4ccccn4)C3)CC2)c1 (stereo not drawn) | 8 | 4
CN(Cc1ccc(Cl)s1)C(=O)Nc1ccc(N(C)C)nc1 | -16 | -19
Cc1ccc(C)c(Cn2c(=O)c3c(nc4n(CCCN5CCOCC5)c(C)cn34)n(C)c2=O)c1 | -1 | 0
COc1cccc(C(=O)Nc2ccc(Nc3ccc(-n4ccc(C)n4)nn3)cc2)c1 | -3 | -7
Cc1ccc(C2=NN(C(=O)CN3CCCC3)C(c3ccccc3F)C2)cc1 (stereo not drawn) | -4 | -3
Cc1csc2c(N3CCNC(C(=O)NCc4ccccn4)C3)ncnc12 (stereo not drawn) | 1 | -3
O=C(Nc1ccccc1[N+](=O)[O-])C1CCN(c2ccc(-c3ccc(F)cc3)nn2)CC1 | -10 | -13
CCN(CC)S(=O)(=O)c1ccc(OC(C)C)c(NC(=O)CC23CC4CC(CC(O)(C4)C2)C3)c1 | 6 | 5
Cc1ccc(N2CCCC(N3CCN(CC(F)F)CC3)C2=O)cc1 (stereo not drawn) | 7 | 5
COc1ccc(-c2nc3cc(C)ccn3c2NC(=O)C(C)(C)CCl)cc1 | -13 | -8
CCOC(=O)C1(Cc2ccc(OC)cc2)CCN(S(=O)(=O)c2cccc(C)c2)CC1 | 0 | -4
CCn1c(SCc2cc(Cl)c3c(c2)OCO3)nnc1-c1ccco1 | -4 | -4
CCOC(=O)Cc1csc(NC(=O)c2ccc(C)c([N+](=O)[O-])c2)n1 | -5 | -12
CC(=O)c1cccc(NC(=O)N2CCC(CCc3ccc(C(F)(F)F)cc3)CC2)c1 | 2 | 13
Nc1c(C(=O)Nc2ccccc2O)sc2ncccc12 | -1 | -1
Cc1cccc(OCc2nn3c(N)c(C=C4C=Nc5ccccc54)c(=O)nc3s2)c1 | -2 | -3
CN1CCN(S(=O)(=O)c2ccc(NC(=S)NC(=O)/C=C/c3ccc(F)cc3)cc2)CC1 | -5 | 2
CCOC(=O)C1(Cc2ccc(Cl)cc2)CCN(C(=O)CC2=CCCCC2)CC1 | 5 | 2

(further entries)
Results follow in this order: NPYLR7 ag, NPYLR7 ag max-min
CC(C)c1cc(C2CCN(C(=O)c3nc(C(C)C)cs3)CC2)[nH]n1
    3, 0
O=S(=O)(c1c(F)cccc1F)N1CCN(Cn2nc(-c3ccco3)oc2=S)CC1
    -3, -7
O=[N+]([O-])c1ncccc1OCCOc1cccc(Br)c1
    0, 32
Cc1cc(N2CCN(c3ccccc3C)CC2)n2ncc(-c3ccccc3)c2n1
    -1, -5
O=C(c1c(F)cccc1Cl)N1CCc2ccccc2C1c1ccccc1Cl (stereo not drawn)
    29, 16
Cc1cc(=O)n2c(-c3cccc(NC(=O)c4ccc(Cl)cc4Cl)c3)csc2n1
    7, 4
O=C(Nc1n[nH]c(-c2ccc(F)cc2)n1)C1CCCC1
    6, 9
COc1cccc(-c2cnc3c(NC(C)=O)cc(-c4cccc(NC(C)=O)c4)cn23)c1
    -4, -7
Cc1ccn2c(=O)nc(SCC(=O)OCc3ccccc3)nc2c1
    -1, -1
Cn1c(=O)c2c(nc(CN3CCN(CCO)CC3)n2Cc2cccc3ccccc23)n(C)c1=O
    1, -1
CCc1ccc(-n2c(=O)c3ccccc3n3c(SCC(=O)NC(C)(C)C)nnc23)cc1
    -2, -4
CC1(C(=O)NC2CCN(Cc3ccccc3)CC2)CCN1Cc1ccc2ccccc2c1 (stereo not drawn)
    -1, -8
CCCCCCN1CC2=C(C1=O)C(c1ccc(C(C)C)cc1)NC(=O)N2C (stereo not drawn)
    -4, 1
CN=c1scc(C)n1N=CC1CCCCC1
    8, 5
COc1ccc(-n2c(Cc3ccccc3)nnc2SCCCC(=O)N2CCN(C(=O)c3ccc(Cl)c(Cl)c3)C(C)C2)cc1 (stereo not drawn)
    18, 21
CCC(C)S(=O)(=O)N1CCn2nc(C(=O)OC)cc2C1 (stereo not drawn)
    2&4, 1&6
C=CCn1c(=O)c2c(nc3n2CC(C)CN3c2ccc(Cl)cc2)n(C)c1=O (stereo not drawn)
    -1, -2
COC(=O)C1(C(F)(F)F)CCN(Cc2ccccc2)C1 (stereo not drawn)
    3, 1
COc1ccc(C(=O)N2CCSC23CCN(C(=O)c2cc(C(F)(F)F)cc(C(F)(F)F)c2)CC3)cc1
    16, 25
CS(=O)(=O)c1ccc(-c2ccccc2C(N)=O)cc1
    8, 3
CCC(=O)Nc1ccc(I)c(C)n1
    7, 10
O=C(NN=Cc1c(Cl)cccc1Cl)c1cc(C2CC2)[nH]n1
    6, 11
Cc1nc(C)n(CC2CCCCN2Cc2cn3ccsc3n2)n1 (stereo not drawn)
    -1, -3
CCN(CC)CCN(C(=O)c1ccno1)c1nc2c(OC)ccc(Cl)c2s1
    0, 24
COCC(C)c1nc(-c2ccc(CCC(C)NC(C)=O)cc2)cs1 (stereo not drawn)
    28, 10
CCc1ccc(C(=O)CSc2nnc(-c3cccs3)n2C2CC2)s1
    1, 3
Cc1cccc(-n2c(-c3ccc(Cl)cc3)cc(C(=O)N3CCN(C(=O)CCl)CC3)c2C)c1
    -4, -2
COc1cccc(-c2ccnc(-n3ncc(C(=O)N4CCN(c5ccccc5)CC4)c3C3CC3)n2)c1
    16, 4
CCc1nnc(-c2cc3ccccc3n2CC(=O)Nc2ccc(C)cc2C)o1
    -2, -2
Cn1c(=NN=Cc2ccc(F)c(F)c2)sc2ccccc21
    4, 6
CC1=NN(CC(=O)NCc2cc(-c3ccco3)on2)CC1
    22, 15
CC(NC(=O)Cc1ccc2c(c1)CCCC2)c1ccncc1 (stereo not drawn)
    7, 3
CCCCCn1c(=O)c2c(nc3n2CCCN3c2ccc(OC)cc2OC)n(C)c1=O
    7, 6
